Six1-Eya2 blk – Six1/Eya2 interaction inhibition | AlphaScreen GST-Six1/His-Eya2 binding, biochemical; active compounds read low; control for the full effect not named in the record | 0.56% of 360,000 active | activity change, % (no concentration beside the values) | Q15475+O00167; in the data active = activity change below about -65%; inconclusive = about -30% to -65%; inactive = above about -30%; further: on the % scale 0 is the no-effect control and ±100 the full control effect
Target sequence (O00167 whole entry, looked up): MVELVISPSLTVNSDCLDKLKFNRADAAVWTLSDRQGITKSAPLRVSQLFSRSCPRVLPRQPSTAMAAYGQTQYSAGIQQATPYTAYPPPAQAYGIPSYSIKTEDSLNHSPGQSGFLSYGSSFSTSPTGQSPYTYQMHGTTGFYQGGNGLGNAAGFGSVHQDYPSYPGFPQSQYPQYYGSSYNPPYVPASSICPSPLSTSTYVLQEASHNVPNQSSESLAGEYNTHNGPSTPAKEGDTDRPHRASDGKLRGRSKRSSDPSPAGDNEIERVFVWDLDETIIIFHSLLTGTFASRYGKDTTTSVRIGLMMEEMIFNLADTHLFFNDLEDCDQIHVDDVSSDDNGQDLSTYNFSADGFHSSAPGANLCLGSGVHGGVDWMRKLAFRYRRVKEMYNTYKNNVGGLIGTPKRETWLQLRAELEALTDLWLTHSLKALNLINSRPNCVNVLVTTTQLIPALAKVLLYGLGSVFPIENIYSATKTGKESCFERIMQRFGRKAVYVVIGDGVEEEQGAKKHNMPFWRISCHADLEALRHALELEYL
Target sequence (Q15475 whole entry, looked up): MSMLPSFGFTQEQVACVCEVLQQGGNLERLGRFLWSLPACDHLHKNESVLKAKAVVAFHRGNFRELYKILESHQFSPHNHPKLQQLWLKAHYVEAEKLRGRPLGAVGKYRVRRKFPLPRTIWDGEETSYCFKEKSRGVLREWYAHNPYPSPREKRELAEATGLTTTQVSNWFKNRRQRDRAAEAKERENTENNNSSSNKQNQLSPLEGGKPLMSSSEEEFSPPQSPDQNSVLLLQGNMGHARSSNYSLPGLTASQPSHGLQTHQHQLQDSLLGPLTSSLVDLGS
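Homogeneous AlphaScreen proximity assay pairing GST-Six1 with His-tagged Eya2 (added as 5X mix: 250 nM and 500 nM) in 50 mM Tris pH 8.0, 300 mM NaCl, 1 mM TCEP. Glutathione donor and nickel acceptor beads; 1 h, 37 °C, dark.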
CtBP-E1A inh – blocks the CtBP interaction with E1A; AlphaScreen GST-E1A/His-CtBP binding, 1536-well; active compounds read low; control for the full effect not named in the record; activity change, % (concentration not given with the values); 0.49% of 340,000 active; in the data active means activity change below about -65%; inconclusive means about -30% to -65%; inactive means above about -30%; further: on the % scale 0 is the no-effect control and ±100 the full control effect
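Protein mix (5X: 125 nM each GST-E1A, His-CtBP) was incubated with pinned compound 2 h at 37 deg C in dark, in 50 mM Tris pH 8.0 buffer with 300 mM NaCl. Glutathione donor and nickel acceptor beads followed; AlphaScreen signal read after 1 h.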
gsp agonist – agonists of gsp mutant (McCune-Albright syndrome); gsp mutant cells, cAMP HTRF, 30 min; control for the full effect not named in the record; Potency, µM (highest dose often 76.9 µM), for inactives: top-dose activation (cAMP increase), most hits filed as activators; 0.13% of 340,000 active; active = well fitted activation curve with a large enough effect; inconclusive = small, poorly fitted or top-dose-only effect, or another doubt; inactive = no such curve, though single readings can be large or run the other way; cell line not stated here;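 further: phosphodiesterase inhibitor Ro 20-1724 added with compounds to block cAMP breakdown; potency means the concentration at half of the fitted maximal effect; nearly all actives have a fitted effect of over 60% in size; about a fifth of the inactives were tested at one dose only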
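Cells stably selected in G418 were plated at 2000/well, grown 16-24 hr, then given compounds in DMSO with the PDE inhibitor […] (300 uM solution added) for 30 min at 37C; cAMP was read by HTRF.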
D2 PAM – human D2 receptor positive allosteric modulation; DiscoveRx D2 beta-arrestin cells, luminescence, 90 min; 100% = 57 uM dopamine signal; potentiation, % (test concentration not listed); 0.23% of 360,000 active; AID 624464; active = potentiation of 50% or more; inconclusive = 30% to 50%; inactive = 30% or less;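 further: compound concentration not given in the record; tested on top of an EC20 dose of dopamine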
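PathHunter D2 cells, attached overnight at 37 deg C, received compound in DMSO plus dopamine at EC20 (50 nM final) for 90 min at 37 deg C. Beta-arrestin recruitment was read as luminescence after 1 h with detection reagent at ambient temperature.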
gsp antag – antagonizes gsp, the McCune-Albright syndrome mutation; 0.4% of 340,000 active; gsp-mutant cells, cAMP HTRF, 30 min; control for the full effect not named in the record; AID 624288; Potency, µM (highest dose often 76.9 µM), for the others: top-dose activity change, negative = inhibition, hits mostly inhibitors; active = falling curve of any shape with a large fitted effect; inconclusive = falling curve, mostly with a smaller effect; inactive = flat or rising curve; cell line not stated here;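 further: intracellular cAMP measured with PDE inhibitor Ro 20-1724 present during compound exposure; potency means the concentration at half of the fitted maximal effect; on the % scale 0 is the no-effect control and ±100 the full control effect; nearly all actives have a fitted effect of over 65% in size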
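HTRF cAMP read-out (cAMP-d2 plus anti-cAMP antibody-K in lysis buffer, 30 min RT). Before lysis, cells are exposed to compounds with […] for 30 min at 37C in DPBS containing Ca/Mg, BSA and Tween 20.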
D2 ag – agonists of human D2 dopamine receptor (beta-arrestin) | P14416 | DiscoveRx PathHunter D2 beta-arrestin, luminescence, 90 min; 100% = 57 uM dopamine signal | activation, % (no concentration beside the values) | 0.084% of 360,000 active; in the data active = activation above about 40%; inconclusive = about 15% to 40%; inactive = below about 15%; further: compound concentration not given in the record; the text of the record calls up to 30% inactive
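DiscoveRx PathHunter D2 beta-arrestin cells (2,100/well) attached overnight, then compound-stimulated 90 min at 37 C in HBSS/10 mM HEPES/0.1% Tween-20 buffer; beta-galactosidase complementation read by luminescence after 1 h at ambient temperature. Dopamine 57 uM final (EC100) as control.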
* hit, by the source's call; u = inconclusive; x = no result given; [ ] = another dose, or the depositor's remark.

D2 ag,Six1-Eya2 blk,gsp agonist,D2 PAM,gsp antag,CtBP-E1A inh,molecule
5.9,10,u,4,u,-9,Cc1ccc(-c2cc(C(=O)N(C)Cc3cnn(C)c3C)c3cc(Br)ccc3n2)cc1
11,1,0%,u,5%,-1,COc1ccccc1C(=O)O/N=C1/CCCc2c1ccc(OC)c2[N+](=O)[O-]
-2.2,17,11%,-5,-19%,7,CS(=O)(=O)N(CC(=O)N1CCN(c2ccccc2)CC1)c1cc(C(F)(F)F)ccc1Cl
-4.5,24,-10%[15.4 µM],-15,-12%,0,Cc1cc(NC(=O)/C(C#N)=C/c2ccco2)n(-c2ccccc2)n1
2.1,14,3%,17,-7%,16,N#Cc1ccc(CSc2ccc(S(=O)(=O)N3CCCCCC3)cn2)cc1
-1.7,-10,-32%[inhibitor],-7,-24%,-15,COc1ccccc1C(=O)NCCn1cc(SCC(=O)NCc2ccco2)c2ccccc21
7.4,-1,26%,0,-8%,3,COc1ccc2c(COC(=O)CNS(=O)(=O)c3ccc(C)c(C)c3)cc(=O)oc2c1
0.2,-6,4%,26,7.1µM*,-1,CCCCCOC(=O)C1=C(C)N(C)C(=O)NC1c1cc(Br)c(O)c(OC)c1 (configuration not stated)
0.2,-5,u,-5,15%,-2,COc1ccc(S(=O)(=O)N2CCOCC2)cc1NC(=O)CSc1nc(C)c(C)c(C)n1
-3.7,4,13%,-8,5%,4,COc1ccc(S(=O)(=O)NC2CCCC2)cc1Br
0.4,2,u,-5,1%,5,CN(C)c1ccc(/C=C(\C#N)C(=O)c2ccccc2)cc1
0.2,7,2%,-1,8%,-2,CNc1ccccc1NC(=O)C1CCCN1C(=O)OCc1ccccc1 (configuration not stated)
-3.4,-2,14%,-4,5%,3,Cc1ccc(-c2ccc(/C=N\NC(=O)c3cc4c(ccc5ccccc54)o3)o2)cc1[N+](=O)[O-]
-0.2,4,-10%,-5,-9%,5,COc1ccc(C2=NC(=O)NC2c2ccc(OC)cc2)cc1 (configuration not stated)
-2.3,5,-2%,-4,6%,8,CSc1nnc([C@@H](NC(=O)OC(C)(C)C)C(C)C)o1

Three structures from above, ordered by length of the SMILES, highest first:
D2 ag,Six1-Eya2 blk,gsp agonist,D2 PAM,gsp antag,CtBP-E1A inh,molecule
0.2,-5,u,-5,15%,-2,COc1ccc(S(=O)(=O)N2CCOCC2)cc1NC(=O)CSc1nc(C)c(C)c(C)n1
-2.3,5,-2%,-4,6%,8,CSc1nnc([C@@H](NC(=O)OC(C)(C)C)C(C)C)o1
-3.7,4,13%,-8,5%,4,COc1ccc(S(=O)(=O)NC2CCCC2)cc1Br

Carrying on.
D2 ag,Six1-Eya2 blk,gsp agonist,D2 PAM,gsp antag,CtBP-E1A inh,molecule
-1.6,4,-26%,-11,-3%,2,CCCCCn1c(CCCNC(=O)CC)nc2ccccc21
-1.0,1,-8%,-5,2%,-9,COC(=O)c1ccc2[nH]c(C)cc(=O)c2c1
-2.7,-18,u,3,-22%,-16,CCOC(=O)c1c(C)[nH]c(C)c1C(=O)CSc1nc2ccccc2c(=O)n1-c1ccc(Cl)cc1
2.8,-4,x,-1,-21%,3,C#CCNC(=O)C1=C[C@@H](c2csc3ccccc23)C[C@@H](OCc2ccc(CO)cc2)O1
1.9,5,-8%[15.4 µM],2,8%,-10,Cc1c(NC(=O)C(C)N2C(=O)C3CCCCC3C2=O)c(=O)n(-c2ccccc2)n1C (configuration not stated)
-3.8,16,-5%[15.4 µM],-21,0%,1,COc1ccc(OCc2cc(C(=O)N3C[C@@H](C)O[C@@H](C)C3)no2)c(Cl)c1
-2.1,0,-1%,-7,12%,-3,N/C(=N\OC(=O)Cc1ccccc1)c1ccccn1
-2.1,-6,-12%,2,-21%,0,O=C(c1ccccc1)c1c[nH]c2cc3c(cc2c1=O)OCCO3
0.4,-2,x,-14,x,1,CC1(C(=O)NC2CCCCCC2)CCN1C(=O)Cc1ccc(-c2ccccc2)cc1 (configuration not stated)
0.3,1,-27%,-9,3%,4,Cc1cc(=O)oc2cc(OCC(=O)OCC(=O)NCCc3ccccc3)ccc12
-1.4,-3,-5%,-8,-9%,4,CCOC(=O)c1c(-c2ccccc2)nnn1-c1nc(OC)nc(N2CCOCC2)n1
-2.5,8,5%[15.4 µM],-9,2%,0,COc1ccccc1NS(=O)(=O)c1cc(N2Cc3ccccc3C2=N)ccc1N1CCOCC1
1.8,-14,3.5µM*,-5,10%,4,COC(=O)c1sc(N2C(=O)C(O)=C(C(=O)c3ccc(C)o3)C2c2ccc(OC)c(OC)c2)nc1C (configuration not stated)
-3.3,19,21%,-3,-1%,4,COc1ccc(CCNC(=O)C2=CC=CN3CCS(=O)(=O)N=C23)cc1
11,12,-11%[15.4 µM],5,9%,4,Cc1cccc2nc3ccccc3cc12

(further entries)
D2 ag,Six1-Eya2 blk,gsp agonist,D2 PAM,gsp antag,CtBP-E1A inh,molecule
-0.7,-9,3%[15.4 µM],-2,u,-6,COc1ccc(OC)c(NC(=O)c2ccc(-c3csc(C)n3)cc2)c1
3.2,-2,10%,-5,12%,1,O=C(Nc1ccc(S(=O)(=O)N2CCCCC2)cc1)C1CCN(C(=O)c2ccco2)CC1
-3.9,1,-2%,-14,-4%,x,CCOC(=O)C1(Cc2ccc(OC)cc2)CCN(C(=O)CCN2CCCC2=O)CC1
-0.7,-4,-25%,7,4%,10,COc1ccc2[nH]c3nc(SCC(=O)NNC(=O)c4ccc(OC)c(OC)c4)nnc3c2c1
-3.8,0,6%[15.4 µM],-9,7%,3,CC(=O)c1cccc(NC(=O)NNC(=O)c2ccc(Cl)cc2Cl)c1
7.8,4,-2%,-2,-13%,1,CC(C)N(C(=O)CSc1ccc(S(=O)(=O)N2CCCCC2)cn1)c1ccccc1
-6.0,9,-49%[inhibitor],-4,-6%,-1,O=C(Nc1ccccc1)OCCOc1ccccc1Br
-3.5,-1,-1%[15.4 µM],4,x,0,CCCC(=O)C1=C(O)C(C(=O)OC)C(C)(C)CC1=NCCc1ccc(OC)c(OC)c1 (configuration not stated)
-0.9,2,-8%,-22,2%,-2,CC(Nc1oc(-c2ccco2)nc1C#N)c1ccccc1 (configuration not stated)
-1.8,-2,-38%[inhibitor],-7,-2%,-17,COc1ccccc1C1CC(=O)NC(C)=C1C(=O)OCC1CCCO1 (configuration not stated)
-0.1,3,8%,4,12%,10,c1cnc(N2CCSCC2)nc1
-3.5,-3,1%,-32,-2%,1,O=C(COC(=O)C1CCN(S(=O)(=O)c2cccs2)CC1)c1ccc2c(c1)OCCO2
-3.8,-14,18%[15.4 µM],-14,-31%,-3,CCOC(=O)c1c(NC(=O)CN2C(=O)NC3(CCCCC3C)C2=O)sc(C)c1CC (configuration not stated)
-12,4,u,-12,x,-4,COCCCNC1=C(C#N)C(=O)NC2(CCCC2)S1
7.7,-9,4%,2,u,0,CSc1nn(-c2ccc(C(=O)OC(C(=O)NC(N)=O)C(C)C)cc2)c(=S)s1 (configuration not stated)

Entries of single compounds, quoted from the list. Screens in order: D2 ag, Six1-Eya2 blk, gsp agonist, D2 PAM, gsp antag, CtBP-E1A inh
Profile of CSc1nn(-c2ccc(C(=O)OC(C(=O)NC(N)=O)C(C)C)cc2)c(=S)s1 (configuration not stated) : 7.7, -9, 4%, 2, u, 0
Profile of COc1ccc(OC)c(NC(=O)c2ccc(-c3csc(C)n3)cc2)c1 : -0.7, -9, 3%[15.4 µM], -2, u, -6
Profile of O=C(COC(=O)C1CCN(S(=O)(=O)c2cccs2)CC1)c1ccc2c(c1)OCCO2 : -3.5, -3, 1%, -32, -2%, 1

Later entries.
D2 ag,Six1-Eya2 blk,gsp agonist,D2 PAM,gsp antag,CtBP-E1A inh,molecule
0.9,13,26%,-16,9%,-11,Clc1ccc2oc(-c3cccnc3)nc2c1
-2.5,-4,-29%,-13,-11%,-8,COC(=O)C1=C(CCc2ccccc2)NC(=O)NC1c1ccc([N+](=O)[O-])cc1 (configuration not stated)
-3.7,-8,u,-13,-12%,3,O=C(C1=NN[C@@H]2C(=O)N(c3cccc(F)c3)C(=O)[C@H]12)C(c1ccccc1)c1ccccc1
-1.2,35,-9%,8,2%,0,CCC(=NN=C(CC)c1ccccc1O)c1ccccc1O
-3.8,1,25%,0,10%,-20,O=[N+]([O-])c1cnc(Nc2ccccc2)nc1Nc1ccccc1
1.6,1,0%,-8,-18%,-4,Cc1ccc(C2Nc3ccccc3C(=O)N2Cc2ccco2)cc1 (configuration not stated)
-2.6,-2,-3%[15.4 µM],-17,7%,6,Cc1ccc2c(=O)c(CN3CCCCCC3)c(C)[nH]c2c1C
-0.7,-28,-23%,1,-41%,-19,C=CCn1c(Cc2csc(N)n2)nnc1SCC(=O)Nc1ccccc1C(F)(F)F
0.7,-6,-20%,-13,-5%,6,Nc1c(-c2ccccc2)cnn1C1CCS(=O)(=O)C1 (configuration not stated)
-2.9,-8,-50%[inhibitor],-5,-24%,u,CCOc1ccc(NC2c3ccccc3C(=O)N2Cc2ccc3c(c2)OCO3)cc1 (configuration not stated)
-1.3,-5,-9%,-15,6%,3,O=C(Nc1ccc2c(c1)oc1ccccc12)c1cccnc1
7.9,3,-28%[15.4 µM],13,-19%,-7,CCOC(=O)CSc1nc2c(sc(=S)n2-c2ccc(CC)cc2)c(=O)[nH]1
-2.9,0,26%,-20,12%,6,COc1ccc(Cl)cc1C(=O)NCc1cnn(C)c1C
5.0,-10,8%,-8,u,9,CCOC(=O)/C(C#N)=C/c1cn(CCC(=O)O)nc1-c1ccc(F)cc1
-0.1,1,-36%,-3,-3%,0,Cc1ccccc1C(=O)NCc1ccncc1

Next compounds follow:
D2 ag,Six1-Eya2 blk,gsp agonist,D2 PAM,gsp antag,CtBP-E1A inh,molecule
-0.8,-6,-2%[15.4 µM],-5,-23%,-4,CC1Cc2ccccc2N1C(=O)/C=C/c1cccc(F)c1 (configuration not stated)
2.0,23,-12%[15.4 µM],-26,-27%,0,CC(=O)Nc1ccc2c(c1)C(=O)c1ccc(Cl)cc1-2
1.5,12,6%,-2,u,-14,O=C(OCCN1C(=O)c2ccccc2C1=O)c1cc2ccccc2o1
0.9,1,-38%,9,1%,0,COc1ccc(CCNS(=O)(=O)c2cccc(C)c2)cc1OC
-3.6,-5,3%,18,16%,4,O=c1c2cn[nH]c2nc(SCc2ccc3c(c2)OCCO3)n1-c1ccccc1
0.1,-8,0%,2,5%,-16,CCCn1c(=S)[nH]c2cc(OC)c(OC)cc2c1=O

Assay outcomes from PubChem.
